Bioassay records from PubChem.
Vif TR-FRET: inhibitors of Vif binding to APOBEC3G peptide, primary screen, biochemical, TR-FRET, GST-Vif 1-94, biotin-A3G peptide, dose response retest (AID 1117319); TR-FRET GST-Vif / biotin-A3G peptide binding; higher % means a stronger effect; test concentration not given here; strong numbers were not always called active; inhibition, %; hits with a dose series show IC50 in µM; 260,000 tested, 0.57% active;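 active = above the screen mean plus three standard deviations and confirmed in dose response; inconclusive = results disagree or hit not tested in dose response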;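 also: Vif residues 1-94 fused to GST binding biotinylated APOBEC3G peptide 110-148; 0% = full assay without inhibitor and 100% = GST in place of GST-Vif; retest series ran down from 100 µM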
HNF4A DNA FP: change in binding of human HNF4 alpha to DNA. 360,000 tested, 0.3% active. activity change, % at 10 µM. HNF4a-FITC DNA binding, fluorescence polarization, 1 h; in the data active = activity change above about 30%, passing the limit was not always enough;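 also: controls were the assay level and a saturating level of protein; the project sought stronger binding though the title names inhibitors; some compounds called inactive have numbers as strong as hits; positive values seem to mean higher polarization but the record does not say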
Target sequence (P41235 whole entry, looked up): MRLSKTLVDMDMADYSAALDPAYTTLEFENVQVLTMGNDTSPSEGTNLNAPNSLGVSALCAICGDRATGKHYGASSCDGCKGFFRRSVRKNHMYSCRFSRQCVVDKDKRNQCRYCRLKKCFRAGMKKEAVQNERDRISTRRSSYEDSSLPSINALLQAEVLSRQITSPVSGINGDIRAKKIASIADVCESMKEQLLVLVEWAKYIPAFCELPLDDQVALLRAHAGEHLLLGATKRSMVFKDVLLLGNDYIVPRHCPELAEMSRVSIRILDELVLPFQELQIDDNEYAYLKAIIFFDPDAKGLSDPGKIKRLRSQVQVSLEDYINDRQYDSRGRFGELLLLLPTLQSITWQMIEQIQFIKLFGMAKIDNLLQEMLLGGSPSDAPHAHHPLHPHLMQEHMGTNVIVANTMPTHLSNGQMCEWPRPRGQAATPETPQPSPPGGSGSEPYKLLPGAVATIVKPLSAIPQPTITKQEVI
LANA-H2A inh: blocks KSHV LANA binding to histone H2A/H2B | inhibition, % (no concentration beside the values) | 320,000 tested, 0.6% active | cell-free LANA-H2A/H2B peptide, fluorescence polarization; in the data active = inhibition mostly above about 10%, no sharp cut-off; inactive = mostly below about 6.7%;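 also: stock transfer was 7.5 nL into about 10 µL; 0% = median of vehicle wells and 100% = median of positive control wells; one replicate is shown; the record names a cut of 25% in any replicate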
* marks the source's active call; other numbers are inactive results; ? = inconclusive; . = not tested or not shown. These rows are one share of the data; rates above refer to the full screens.

SMILES	Vif TR-FRET	HNF4A DNA FP	LANA-H2A inh
COC(=O)[C@@]1(Cc2ccccc2)[C@H]2c3cc(C(=O)N4CCCC4)n(Cc4ccsc4Br)c3C[C@H]2CN1C(=O)c1ccccc1	?	.	2.7
CCOC(=O)C1=C(C)N(CCCCCC(=O)O)C(=O)NC1c1ccccc1OC(=O)c1cccs1 (stereo unspecified)	4.7%	.	-3.3
COC1=C(N)C(=O)c2nc(-c3nc(C(=O)O)c(C)c(-c4ccc(OC)c(OC)c4O)c3N)ccc2C1=O	10.8µM*	.	-7.1
O=C(Nc1cccc(Cc2ccccc2)c1)Nc1cccc2[nH]c([C@@H]3O[C@H](CO)[C@@H](O)[C@H](O)[C@H]3O)nc12	.	3.1	.
CCCS(=O)(=O)NC(=O)C1(C)CCCN(C(=O)COc2ccc(Cl)cc2Cl)C1 (stereo unspecified)	.	-1.8	.
O=C1Nc2ccccc2NC(c2ccc3c(c2)OCO3)=C1N(Cc1ccc(F)cc1)C(=O)c1ccco1	.	0.1	.
CC1(C(=O)NS(=O)(=O)c2cccc(F)c2)CCN1C(=O)c1ccccc1 (stereo unspecified)	.	-2.6	.
Cc1cn([C@H]2C[C@H](O)[C@@H](/C=C/C(=O)NCCN3CCOCC3)O2)c(=O)[nH]c1=O	.	5.3	.
O=C(Nc1cccc(S(=O)(=O)N2CCCC2)c1)[C@@H]1O[C@H](CO)[C@H](O)[C@H](O)[C@H]1O	.	-2.4	.
CC(=O)Nc1cc(-c2cccc(C(=O)N(C)C)c2)cn2c(-c3ccc(F)cc3)cnc12	.	0.8	.
COc1ccc(C(C)=O)cc1Cn1c(C)c(C(=O)NCc2cccc(C(F)(F)F)c2)sc1=O	.	2.0	.
Nc1nc2ccccc2cc1C(=O)NCc1ccc(Cl)cc1Cl	.	-0.8	.
O=C(CC[C@H]1O[C@@H](n2cnc3c(NC(=O)c4ccccc4)ncnc32)[C@H](O)[C@@H]1O)NCC(c1ccccc1)c1ccccc1	.	4.3	.
OC[C@@H]1CN(CCc2ccccc2)C[C@H](n2cnc3c(N4CCOCC4)ncnc32)O1	.	2.0	.
CCN(CC)C(=O)Cn1cc(C(=O)C(=O)Nc2ccc3c(c2)OCO3)c2ccccc21	.	-3.3	.
CCCCCNC(=O)C(c1ccc(OC)cc1)n1c(=O)c(-c2ccccc2)nc2ccccc21 (stereo unspecified)	.	1.3	.
COCCNc1nc(Oc2cccc(F)c2)c2sccc2n1	.	-0.8	.
Cc1cnc(CNC(=O)c2ccc3sc([C@H]4C[C@H](O)[C@@H](CO)O4)nc3c2)cn1	.	-1.0	.
CCOC1=C2CN(S(=O)(=O)c3ccc(C)cc3)[C@H](c3cccc4ccccc34)C[C@H]2C(C#N)(C#N)C(C#N)(C#N)C1	.	1.6	.
CC(C)C1C(=O)N(Cc2cn(CCC3OCCCO3)nn2)CCS(=O)(=O)N1Cc1ccc(-c2ccc(Cl)c(Cl)c2)cc1 (stereo unspecified)	.	4.7	.
Cc1csc(NC(=O)C2(C)CCN2C(=O)C(C)C)c1C#N (stereo unspecified)	.	4.9	.
COC(=O)C1=CN(c2ccc(C)cc2)C(N)=C(C#N)C1c1ccccc1F (stereo unspecified)	.	0.7	.
O=C1NC[C@H](Cc2ccc(O)cc2)N(C[C@@H]2CCCN2C[C@H](Cc2ccc(O)cc2)N2C[C@H](Cc3ccccc3)N(CC3CCCCC3)C(=O)C2=O)C1=O	.	-5.6	.
COC(=O)[C@H](CC(C)C)NC(=O)CC[C@H]1O[C@@H](n2cc(C)c(=O)[nH]c2=O)C[C@@H]1O	.	0.2	.
COc1ccc(-c2cnc3c(NC(C)=O)cc(-c4ccc(C(=O)NC5CC5)cc4)cn23)cc1OC	.	4.3	.
COC(=O)[C@@]1(C(C)C)N=C(c2cc(OC)c(OC)c(OC)c2)[C@]2(O1)C(=O)N(C)c1ccccc12	.	3.4	.
CC1=C(C(=O)N(C)C)CC(CC(=O)NCc2cccc3ccccc23)C(=O)N1Cc1ccc(F)cc1 (stereo unspecified)	.	4.9	.
CC(=O)Nc1cc(-c2ccc(N3CCN(C)CC3)cc2)cn2c(-c3ccc(S(C)(=O)=O)cc3)cnc12	.	3.0	.
CCCCCCN1CCN(C2CN(Cc3cn(Cc4cccc(C(F)(F)F)c4)nn3)S(=O)(=O)C2)CC1 (stereo unspecified)	.	1.5	.
CN(C)c1cccc(NC(=O)c2cccc3c(-c4ccc(F)c(F)c4)coc23)c1	.	-1.3	.
O=C(c1[nH]c(C(F)(F)F)nc1-c1ccccc1)N1CCN(c2ncccc2C(F)(F)F)CC1	.	-2.1	.
Cc1cccc(C)c1-n1nnnc1C1c2ccccc2C(=O)N1CCCn1ccnc1 (stereo unspecified)	.	-4.6	.
Cc1ccc(-c2nc3ccc(Cl)cn3c2Cc2cccc(Cl)c2)cc1	.	7.0	.
CCOC(=O)C1=C[C@@H](C(C)C)N(S(=O)(=O)c2ccc(C)cc2)[C@H]1c1ccc(C(F)(F)F)cc1	.	-2.7	.
CC(C)c1cc(C(C)C)c(S(=O)(=O)NC(c2ccccn2)C23CC2C3)c(C(C)C)c1 (stereo unspecified)	.	8.5	.
O=C(CN1CCN(c2ccccc2)CC1)Nc1ccccc1C(=O)NCCc1ccccc1	.	-5.0	.
CC(C)NC(=O)C1(C)CCN1C(=O)c1c(F)cccc1F (stereo unspecified)	.	-1.1	.
O=C(Nc1ccc(Oc2ccccc2)cc1)c1csc([C@@H]2O[C@H](CO)[C@@H](O)[C@H]2O)n1	.	3.6	.
CC1(C(=O)NS(=O)(=O)c2cccs2)CCN1C(=O)c1cccc(F)c1 (stereo unspecified)	.	4.0	.
CC(C)C[C@H]1COc2cccc(N3CCSCC3)c2S(=O)(=O)N1	.	-1.6	.

One compound at a time, as listed above. Screens in order: Vif TR-FRET, HNF4A DNA FP, LANA-H2A inh
Shown for CCOC(=O)C1=C[C@@H](C(C)C)N(S(=O)(=O)c2ccc(C)cc2)[C@H]1c1ccc(C(F)(F)F)cc1 → ., -2.7, .
Shown for O=C(CN1CCN(c2ccccc2)CC1)Nc1ccccc1C(=O)NCCc1ccccc1 → ., -5.0, .
Shown for Cc1ccc(-c2nc3ccc(Cl)cn3c2Cc2cccc(Cl)c2)cc1 → ., 7.0, .
Shown for CC(C)NC(=O)C1(C)CCN1C(=O)c1c(F)cccc1F (stereo unspecified) → ., -1.1, .

Next results follow:
SMILES	Vif TR-FRET	HNF4A DNA FP	LANA-H2A inh
CCCNC(=O)C1(C)CCN(C(=O)c2sccc2C)C1 (stereo unspecified)	.	-0.1	.
CC(=O)Nc1ccc(-c2ccnc3c2CC(C)(C(=O)NCC2CC2)O3)cc1 (stereo unspecified)	.	-0.9	.
CC(C)C[C@H]1CN([C@@H](Cc2ccc(O)cc2)CN2CCC[C@H]2CN2C(=O)C(=O)NC[C@@H]2Cc2ccccc2)C(=O)C(=O)N1CCc1ccccc1	.	0.0	.
CN(C)c1ccc(-c2ccnc3c2CC(C)(C(=O)NCC2CCOCC2)O3)cc1 (stereo unspecified)	.	-1.1	.
CN(Cc1ccc(Cl)c(Cl)c1)C(c1cc2ccccc2o1)c1nnnn1C(C)(C)C (stereo unspecified)	.	-1.6	.
COC(=O)[C@@]12C[C@@H](CC(=O)NCCCN3CCCC3=O)C(=O)N(CCc3ccc(OC)c(OC)c3)C1=CCC(C)(C)C2	.	1.4	.
CC(=O)Nc1ccc(NC(=O)c2csc([C@@H]3O[C@H](CO)[C@H](O)[C@H](O)[C@H]3O)n2)cc1	.	0.2	.
Nc1nc2ccccc2cc1C(=O)NCc1cccs1	.	3.5	.
CC1C(=O)N(Cc2cn(CCC3OCCCO3)nn2)CCS(=O)(=O)N1Cc1ccc(-c2ccc(Cl)c(Cl)c2)cc1 (stereo unspecified)	.	1.6	.
CC(=O)Nc1cc(-c2cccc(NS(C)(=O)=O)c2)cn2c(-c3cccc(C(F)(F)F)c3)cnc12	.	10.8	.

Looked up above:
Reading of CC(=O)Nc1cc(-c2cccc(NS(C)(=O)=O)c2)cn2c(-c3cccc(C(F)(F)F)c3)cnc12 in HNF4A DNA FP: 10.8
Reading of CN(C)c1ccc(-c2ccnc3c2CC(C)(C(=O)NCC2CCOCC2)O3)cc1 (stereo unspecified) in HNF4A DNA FP: -1.1
Reading of COC(=O)[C@@]12C[C@@H](CC(=O)NCCCN3CCCC3=O)C(=O)N(CCc3ccc(OC)c(OC)c3)C1=CCC(C)(C)C2 in HNF4A DNA FP: 1.4
Reading of CC(=O)Nc1ccc(-c2ccnc3c2CC(C)(C(=O)NCC2CC2)O3)cc1 (stereo unspecified) in HNF4A DNA FP: -0.9

Other entries follow.
SMILES	Vif TR-FRET	HNF4A DNA FP	LANA-H2A inh
COc1ccccc1Cn1c(C)c(C(=O)NCc2ccco2)sc1=O	.	12.3	.
COc1ccc(CCCNC(=O)C2Cc3c(-c4cccc(C(N)=O)c4)ccnc3O2)cc1 (stereo unspecified)	.	0.5	.
COc1ccc(-c2coc3c(C(=O)NCc4ccccc4)cccc23)c(C)c1	.	1.8	.
O=C(NC(c1ccc(-c2ccccc2)cc1)c1cnccn1)C1CCN(CCN2C(=O)c3ccccc3C2=O)CC1 (stereo unspecified)	.	-1.9	.
Cc1ccc(S(=O)(=O)N2C[C@H]3C(=O)C[C@@H]4C(=O)N(c5ccccc5)C(=O)[C@@H]4[C@@H]3C[C@H]2c2cccc(Cl)c2)cc1	.	5.6	.
CCc1nc2ccc(C(=O)Nc3cc(-c4ccccc4)ccc3OC)cn2c1N(C)Cc1ccc(OC)cc1	.	6.2	.
CC(=O)Nc1cnc(-c2cccc(C(=O)N3CCOCC3)c2)cn1	.	-3.5	.
COc1cccc(CNC(=S)Nc2ccc3c(c2)c(=O)n(C)n3C)c1	.	-3.4	.
CCNC(=O)C1(C)CCCN(Cc2ccc(Oc3ccccc3)cc2)C1 (stereo unspecified)	.	1.1	.
N#Cc1c(N)[nH]c(C(=O)c2ccccc2)c1-c1ccccc1Br	.	2.1	.
COC(=O)CCCn1cc(CN2CC(N3CCN(C4CCN(C)CC4)CC3)CS2(=O)=O)nn1 (stereo unspecified)	.	-2.9	.
Cc1ccc(CNc2nc3cc(-c4ccccc4)sc3c(=O)n2C)c(C)c1	.	0.0	.
CCOc1ccc(CCN2C(=O)C(=O)N([C@@H](CC(C)C)CN3CCC[C@H]3CN3C(=O)C(=O)NC[C@@H]3Cc3ccc(O)cc3)C[C@@H]2Cc2ccccc2)cc1	.	2.4	.
O=C(NCc1nnnn1-c1ccc(Cl)cc1)c1ccc2c(c1)OCO2	.	-1.6	.
Cc1ccc(Cn2c(C)c(C(=O)NCc3ccc4c(c3)OCO4)sc2=O)cc1	.	1.2	.
Cc1cnc(NC(=O)C2(C)CCN2C(=O)C(C)C)s1 (stereo unspecified)	.	-0.8	.
CC1=C(C(=O)N(C(C)C)C(C)C)CC(CC(=O)NCCN2CCOCC2)C(=O)N1CCCN1CCCC1=O (stereo unspecified)	.	4.5	.
CC1=C(C(=O)OCc2ccccc2)C(c2ccc(C)cc2)NC(=O)N1 (stereo unspecified)	.	-0.1	.
CC1OC(COCc2ccccc2)Cc2[nH][nH]c(=O)c21 (stereo unspecified)	.	0.1	.
OC[C@H]1O[C@@H](c2nc(-c3ccc(C4OCCO4)cc3)no2)[C@H](O)[C@@H]1O	.	2.7	.

The list goes on (three carried over from the part before).
SMILES	Vif TR-FRET	HNF4A DNA FP	LANA-H2A inh
CC1=C(C(=O)OCc2ccccc2)C(c2ccc(C)cc2)NC(=O)N1 (stereo unspecified)	.	-0.1	.
CC1OC(COCc2ccccc2)Cc2[nH][nH]c(=O)c21 (stereo unspecified)	.	0.1	.
OC[C@H]1O[C@@H](c2nc(-c3ccc(C4OCCO4)cc3)no2)[C@H](O)[C@@H]1O	.	2.7	.
COC(=O)C1=CN(c2ccc(N3CCOCC3)cc2)C(N)=C(C#N)C1c1cccc(OC)c1OC (stereo unspecified)	.	-0.8	.
CCOC1=C2[C@@H](CN(S(=O)(=O)c3ccc(C)cc3)[C@H]2c2ccc(CC)cc2)[C@H]2C(=O)N(C)C(=O)[C@H]2C1	.	-2.4	.
Cc1onc(-c2ccccc2)c1C(=O)N1CCC(C)(C(=O)NS(=O)(=O)C2CC2)C1 (stereo unspecified)	.	3.3	.
O=C(NCc1ccc(Cl)c(Cl)c1)c1cc(C2CCCCN2C(=O)CCc2ccccc2)on1 (stereo unspecified)	.	-1.2	.
Cc1c(NC(=O)CSc2nnc(-c3ccccc3F)o2)c(=O)n(-c2ccccc2)n1C	.	2.1	.
COC(=O)/C=C1\OCc2cc(OC)c(OC)cc21	.	1.6	.
CCc1nc2ccc(C(=O)Nc3cc(-c4ccccc4)ccc3OC)cn2c1N(C)CCC(C)C	.	4.1	.
COc1ccc(Cc2nnc(SC)n2-c2ccc(F)cc2)cc1OC	.	3.5	.
C[C@@H]1CN([C@@H](C)CO)C(=O)CCCn2nncc2CO[C@H]1CN(C)S(=O)(=O)c1cccs1	.	-0.3	.
CC(C)c1ccc(NC(=O)C2(C)Cc3c(-c4ccc(N(C)C)cc4)ccnc3O2)cc1 (stereo unspecified)	.	9.6	.
CC(C)Oc1ccc2ccccc2c1CNC[C@H]1O[C@@H](n2ccc(=O)[nH]c2=O)[C@H](O)[C@@H]1O	.	-3.9	.
